eIF4H inh – inhibitors of RNA binding by human eIF4H; inhibition, % at 35 µM; eIF4H fluorescence polarization binding assay; 290,000 compounds, 0.94% hits; AID 2012; Q15056;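 active means 50% or more with normal probe brightness, or confirmed in later tests; inconclusive means above 50% with abnormal brightness, or retests that disagree; inactive means below 50% or failed in later tests; about a fifth of its hits are not listed in these tables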;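 further: calls also rest on retests at 20 µM and on dose response follow-up; 0% = protein and probe with vehicle and 100% = probe without protein; strong numbers were not always called active; many hits fall short of the cut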
CSC inhib – cancer stem cell inhibition. 300,000 compounds, 1.1% hits. AID 2717. inhibition, % at 7.5 µM. cancer stem cell-like cells viability, luminescence;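 active means mean at 75% or more and at least half the replicates too; inconclusive means mean and replicates disagree; tested in HMLE shEcad cells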;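 further: 0% = median of negative and 100% = median of positive control wells; the first replicate is given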
PABP polyA inh – blocks human PABP binding to poly(A) RNA | inhibition, % at 35 µM | 290,000 compounds, 1% hits | AID 2014 | fluorescence polarization;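 active means 50% or more with normal probe brightness, or confirmed in later tests; inconclusive means above 50% with abnormal brightness, or retests that disagree; inactive means below 50% or failed in later tests; about a fifth of its hits are not listed in these tables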;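 further: calls also rest on retests at 20 µM and on dose response follow-up; controls were probe without protein and protein plus probe with vehicle; some compounds called inactive have numbers as strong as hits; many hits fall short of the cut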
Rce1 inh – yeast Ras-converting enzyme inhibition | 290,000 compounds, 0.27% hits | calls only | Q03530 | yeast membranes, quenched prenylated peptide cleavage fluorescence;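 active means fall in fluorescence gain of 50% or more versus controls, with final raw signal at or below 3038400; inconclusive means same 50% fall but final raw signal above 3038400; inactive means fall in fluorescence gain under 50%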;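 further: plate controls were neutral control wells for no effect and wells lacking membranes for full effect; tested at 10 µM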
Target sequence (Q03530 whole entry, looked up): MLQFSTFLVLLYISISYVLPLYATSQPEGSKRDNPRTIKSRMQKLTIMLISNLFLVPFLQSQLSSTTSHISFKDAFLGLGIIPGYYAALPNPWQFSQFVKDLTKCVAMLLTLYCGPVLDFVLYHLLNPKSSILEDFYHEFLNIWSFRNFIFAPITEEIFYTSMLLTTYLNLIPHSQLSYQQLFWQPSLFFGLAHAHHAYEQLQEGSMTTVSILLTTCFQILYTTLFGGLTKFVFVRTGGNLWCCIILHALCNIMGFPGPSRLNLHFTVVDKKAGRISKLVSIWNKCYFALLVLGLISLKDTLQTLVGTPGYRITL
UUG fidelity – yeast start codon fidelity modulation. S. cerevisiae UUG-firefly luciferase reporter, luminescence/redox ratio. 350,000 compounds, 0.13% hits. activity score, % at 18.7 µM;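 active means replicate mean at a twofold rise or more, about +100% in these data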;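 further: firefly luciferase made from a UUG start codon reports start codon fidelity; reporter light over untreated wells divided by growth signal over untreated wells; some hits fall short of that in this replicate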
HIV Env fusion – blocks HIV Env-driven cell-cell fusion; HeLa-JRFL Env/CEM21 cell fusion, luciferase; inhibition, % at 12.3 µM; 360,000 compounds, 1.1% hits;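 active means mean replicate inhibition score of at least 50 and every replicate individually at or above 50; inconclusive means only one of the two criteria met; inactive means mean below 50 and not all replicates reaching 50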;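 further: 0% = plate neutral controls and 100% = maraviroc near 300 nM; one replicate is shown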
MT1-MMP act inh – MT1-MMP (human) activation inhibition. HT1080 RFP-PRO-GFP cells, GFP/RFP ratio fluorescence, overnight; percent of plate control window, DMSO zero. GFP/RFP ratio change, % at 20 µM. 360,000 compounds, 0.061% hits. AID 651647;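 active means GFP/RFP ratio change of at least 30% with cell ATP level not reduced by more than half and red fluorescence within 50% of control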; further: strong numbers were not always called active
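Read-out: GFP/RFP fluorescence ratio; Test system: RFP-PRO-GFP reporter HT1080 cells; Compound dosing: single-point 20 µM compound, 1% DMSO; Times: overnight compound exposure at 37 °C.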
eIF4H inh retest – further read-out of eIF4H inh, marked with its call; inhibition, %; compound at 20 µM; confirmation average;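 mean of two retest wells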
PABP polyA inh retest – recorded beside PABP polyA inh, whose call it bears; inhibition, %; compound at 20 µM; confirmation repeats;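 mean of two retest wells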
MT1-MMP act inh RFP – also measured in MT1-MMP act inh; calls as there; RFP signal change, %; measured here: RFP expression control read;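 0 = vehicle wells; hits needed this value within 50% of zero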
An asterisk follows results filed as active; i = inactive; ? = inconclusive; . = not tested or not shown; & = joins results of further samples. An excerpt (hit frequency here may not be typical).

SMILES	eIF4H inh	CSC inhib	PABP polyA inh	Rce1 inh	UUG fidelity	HIV Env fusion	MT1-MMP act inh	MT1-MMP act inh RFP	others
COc1ccc(-c2ccc(-c3cc(=O)oc4cc(OC)c(OC)c(OC)c34)cc2)cc1F	.	.	.	.	-7.2	40.8	-3.6	-7.2
CC(CN1CCCCC1)OC(=O)c1ccc2c(c1)OCO2 (stereo not drawn)	-1.7	11.2	-4.3	i	6.1	.	-1.9	3.6
COc1ccc(C=CC(=O)c2ccc(OC)c(OC)c2O)cc1OC	.	.	.	.	5.9	-3.5	6.1	-5.7
Cc1ccc2nc(NCc3ccccc3)c(C=NCc3cccnc3)c(=O)n2c1	-8.1	15.8	-7.1	i	.	-60.9	2.5	-0.2
CC(c1ccccc1)n1cc(C(=O)NCc2ccccn2)nn1 (stereo not drawn)	-6.5	9.5	2.2	i	-22.2	.	3.5	3.4
Cc1cc(C)n(CCC(=O)N2CCN(S(=O)(=O)c3ccccc3)CC2)n1	-18.7	-0.4	7.2	i	-9.5	0.1	2.8	6.4
O=C(NCc1ccccc1F)c1ccc(S(=O)(=O)N2CCCC2)cc1	.	.	.	.	-9.6	49.5	1.2	4.7
CCOC(=O)C1(C)/C(=N/Nc2ccccc2OC)C(=O)C(=O)N1c1ccccc1 (stereo not drawn)	-7.2	5.8	1.7	i	.	-7.7	-2.6	1.4
CCCc1ccc(Oc2cc(Cl)nc(N)n2)cc1	-20.2	1.9	-4.1	i	.	-59.8	-2.7	-2.6
Cc1cccc2c1-c1sc(C(=O)NCCCN3CCCC(C)C3)cc1CO2 (stereo not drawn)	-7.0	12.4	3.9	i	-6.1	5.1	0.3	-1.3
Cc1ccc(N2CC(C(=O)Nc3nc4ccc(S(C)(=O)=O)cc4s3)CC2=O)cc1 (stereo not drawn)	25.3	-9.6	24.7	i	-2.3	-11.6	-10.3	1.7
Cc1cccc(-c2noc(CCC(=O)NCc3ccco3)n2)c1	-2.2	1.0	1.6	i	-4.3	.	4.1	1.5
O=C(Nc1cccc(Cl)c1N1CCOCC1)c1cccnc1	-15.6	-9.6	5.5	i	-15.9	-34.7	-1.6	0.8
CCCc1cnc(N2CCN(S(C)(=O)=O)CC2)nc1	-4.0	-3.3	-0.4	i	.	-6.8	0.7	-4.7
COC(=O)c1c(NC(=O)/C=C/C(=O)O)sc(C)c1-c1ccc(C)cc1	7.8	10.9	19.7	i	1.7	17.0	-1.3	-4.4
CC(=O)Nc1c2c3c(cccc3n(C)c1=O)C(=O)c1ccccc1-2	9.4	.	11.0	i	.	.	-10.3	6.3
COCCCNc1nc2c(c(=O)n(C)c(=O)n2C)n1Cc1cccc(OC)c1	7.2	-5.5	18.5	i	-7.4	.	0.5	-3.4
O=C1Nc2ccc(S(=O)(=O)NCCCO)c3cccc1c23	-8.4	.	5.1	i	-15.5	2.3	1.6	-1.3
OC1CCCN(Cc2cccc3ccccc23)C1 (stereo not drawn)	-8.0	3.8	-6.0	.	-1.5	-24.6	7.3	6.5
C#CCOCCOCCOCCNc1nc(N2CCOCC2)nc(N2CCN(C(=O)[C@H]([C@@H](C)O)n3cc(CCCCN)nn3)CC2)n1	-9.6	-2.3	25.7	i	-7.9	17.7	-2.6	0.5
CCCCNC(=S)N1CCN(Cc2ccc3c(c2)OCO3)CC1	58.1	6.6	-9.5	i	.	31.6	3.9	2.0	eIF4H inh retest=15.6;PABP polyA inh retest=18.6
O=C(NN=C1CCCCCCCCCCC1)c1cccc(S(=O)(=O)N2CCOCC2)c1	0.6	-11.8	?	i	.	9.8	0.3	2.1
O=C(Nc1ccc(Br)cc1Br)c1cccc2c1C(=O)N(C1CCCCC1)C2	-3.3	11.4	16.9	i	-7.5	22.7	-8.2	-9.3
O=C1CCN(S(=O)(=O)c2ccc(Cl)cc2)N1	-11.0	0.7	-9.3	.	-13.2	-6.3	1.8	5.5
CCC(Sc1nc(N)c(NC(=O)c2ccco2)c(=O)[nH]1)C(=O)O (stereo not drawn)	-1.2	-0.6	15.3	i	-14.4	-2.1	-0.3	4.6
CCOc1cc(CNCCO)cc(Br)c1OCc1cccs1	9.0	2.0	1.6	i	.	.	-3.2	-9.3
Cc1ccc(OCc2n[nH]c(=S)n2Cc2ccccc2)cc1	3.6	-8.2	-0.4	i	-9.5	-15.0	-0.7	-5.1
CCOc1ccc(Br)cc1S(=O)(=O)Nc1ccc(Cl)c(S(=O)(=O)N(C)C)c1	-5.8	1.0	2.1	i	9.5	.	3.0	-4.5
N#CC(C(=O)Nc1cccc(Cl)c1)=C1Nc2ccccc2N1	-3.9	.	-9.1	i	-20.5	.	1.1	0.6
CCCC(C(=O)Nc1cccc(S(=O)(=O)N2CCCC2)c1)c1ccccc1 (stereo not drawn)	.	-9.5	.	i	.	0.6	-1.2	-5.3
Cc1cccc(COc2ccc(/C=N/NC(=O)c3nnn(-c4nonc4N)c3CN3CCCCC3)cc2)c1	-10.2	1.0	-10.4	i	4.6	-12.6	2.4	3.4
Cc1cccc(NC(=O)C2CC2c2ccccc2)c1C (stereo not drawn)	3.5	.	13.6	i	-1.9	3.6	0.1	-2.0
CCOc1ccc2nc(NC(=O)C(CCSC)NS(=O)(=O)c3cccs3)sc2c1 (stereo not drawn)	-13.4	-3.2	-10.7	i	-13.8	.	-6.2	-17.0
N#CCc1cc2ccc3cccc4ccc(c1)c2c34	0.0	9.8	-7.1	.	.	40.2	-4.1	-6.3
Cc1ccc(C2=N/C(=C\c3cccc(F)c3)C(=O)O2)cc1	-3.5	-11.5	-1.0	i	-16.8	-45.1	-0.3	-0.6
Nc1nn(-c2ccccc2)c(N)c1N=Nc1ccccc1	-0.1	67.3	5.5	i	-20.0	-268.1	-0.8	-10.1
COc1cc(COCC(O)CN2CCc3ccccc3C2)cc(OC)c1OC (stereo not drawn)	-2.9	-8.0	8.4	.	-17.0	-6.4	-0.2	1.1
O=C(c1ccccc1)n1nnc2ccccc21	-12.4	11.4	-4.3	i	-17.0	-45.1	-1.0	4.5
CC(C)CCn1c(CN2CCN(Cc3ccccc3)CC2)nc2c1c(=O)n(C)c(=O)n2C	0.8	4.3	-3.7	i	8.6	-129.4	-21.7	-11.0
CCS(=O)(=O)N1Cc2ccccc2CC1C(=O)N(C)Cc1ccc(OC)c(F)c1 (stereo not drawn)	-7.3	-21.9	-2.4	i	-11.8	6.6	-0.4	1.9
CCOC(=O)c1ccc(N=C2C(=S)N(c3ccc(C(=O)OCC)cc3)C(=N)N2/N=C/c2ccccc2)cc1	-1.9	1.9	-2.4	i	-35.9	-14.7	5.5	2.0
Cc1cc(C)cc(NC(=O)N2c3ccccc3NC(=O)CC2C)c1 (stereo not drawn)	-9.8	8.2	7.6	i	-9.0	11.6	-0.1	-0.4
O=C(NC12CC3CC(CC(C3)C1)C2)c1ccc([N+](=O)[O-])cc1	15.0	.	6.1	i	-29.6	-4.2	4.8	-1.3
Cc1ccc([C@H]2C[C@@H](O)[C@H](n3cc(C4CC4)nn3)CN2C(=O)C2CCCCC2)cc1	.	.	.	.	-2.1	-39.2	5.7	1.7
Cc1nn(Cc2ccccc2)c(C)c1/C=N/NC(=O)c1cccnc1	9.3	-13.1	-8.2	i	.	10.5	0.2	5.6

3 consecutive compounds already listed, quoted:
SMILES	eIF4H inh	CSC inhib	PABP polyA inh	Rce1 inh	UUG fidelity	HIV Env fusion	MT1-MMP act inh	MT1-MMP act inh RFP	others
Cc1ccc(C2=N/C(=C\c3cccc(F)c3)C(=O)O2)cc1	-3.5	-11.5	-1.0	i	-16.8	-45.1	-0.3	-0.6
Nc1nn(-c2ccccc2)c(N)c1N=Nc1ccccc1	-0.1	67.3	5.5	i	-20.0	-268.1	-0.8	-10.1
COc1cc(COCC(O)CN2CCc3ccccc3C2)cc(OC)c1OC (stereo not drawn)	-2.9	-8.0	8.4	.	-17.0	-6.4	-0.2	1.1

Remaining list, next part:
SMILES	eIF4H inh	CSC inhib	PABP polyA inh	Rce1 inh	UUG fidelity	HIV Env fusion	MT1-MMP act inh	MT1-MMP act inh RFP	others
O=C1CCCC(=NCc2ccco2)C1	-1.1	-9.9	9.6	i	-29.1	.	-3.9	-2.7
CCN1C(=O)/C(=C\N2CCOCC2)SC1=S	-5.3	-22.1	-9.9	i	-11.4	7.5	-4.5	-4.6
COc1ccc(S(=O)(=O)Nc2cccc3c2O[C@H](CN(C)S(=O)(=O)c2ccc(OC)cc2)[C@@H](C)CN([C@H](C)CO)C3=O)cc1	.	.	.	.	-11.4	-138.0	5.2	-0.7
CC1=C(C(=O)Nc2ccc(C)cc2)C(c2ccc(N(C)C)cc2)NC(=O)N1 (stereo not drawn)	-5.0	2.4	-13.7	i	-0.1	-26.5	0.8	4.8
Cn1c(CSc2nc3ccc(Br)cc3[nH]2)nc2ccccc21	17.1	1.8	-1.2	i	-8.8	.	4.3	-0.9
Cc1ccc(S(=O)(=O)N(C)C[C@H]2OCc3cnnn3CCCC(=O)N([C@H](C)CO)C[C@H]2C)cc1	.	.	.	.	-5.4&-0.6&4.0	4.9	0.3	5.3
CCn1c(=O)n(CC)c2cc(N3CCCC3)c(NC(=O)c3ccc(C)c([N+](=O)[O-])c3)cc21	-15.0	36.4	-3.9	i	3.2	-5.9	2.8	-2.8
Cc1ccc(C(=O)Nc2ccccc2C(=O)NCc2ccco2)cc1S(=O)(=O)N1CCCCC1	8.2	20.7	-11.9	i	-11.5	-31.5	-4.7	-14.4
CN(C(=O)COC(=O)C1CCN(S(=O)(=O)c2ccc3c(c2)OCCO3)CC1)c1ccccc1	.	-11.6	.	i	0.5	-6.3	2.5	7.4
O=C(c1ccncc1)N1N=C(c2ccc(Cl)cc2)CC1c1ccccc1O (stereo not drawn)	-4.2	16.1	-1.3	i	-4.7	-100.4	-2.8	-1.1
COc1cc(/C=C/C(=O)c2ccc(F)cc2)cc(OC)c1OC	-6.1	8.9	0.3	i	11.5	-8.3	0.2	-17.6
CCOC(=O)/C(=N\Nc1ccccc1)P(=O)(c1ccccc1)c1ccccc1	-0.8	0.5	0.1	i	7.4	20.2	-6.5	-6.3
O=C(CSc1n[nH]c(-c2ccco2)n1)Nc1ccc(Br)cc1	-1.4	1.0	-6.2	i	-2.0	6.3	-11.8	0.4
Cc1noc2ncnc(N3CCN(c4cccc(Cl)c4)CC3)c12	3.0	0.1	-7.0	i	.	23.5	0.7	-25.4
CCOC(=O)N1CCN(c2nc3ccccc3n3cnnc23)CC1	5.2	4.1	17.7	i	.	-7.2	-2.6	1.8
CCCCOc1ccc(NC2=NC3(CCCC3)N=C(N)N2)cc1	6.8	28.1	-8.0	i	-9.1	-44.1	-10.1	-3.4
O=C(O)[C@H](Cc1ccccc1)NC(=O)N1CCN(c2ccc(F)cc2)CC1	1.8	0.5	4.4	i	10.6	1.3	4.9	7.0
COC(=O)Cc1c(C)c2ccc(OC3CCCCC3=O)c(C)c2oc1=O (stereo not drawn)	-16.8	-6.2	-6.1	i	-2.9	-3.5	-6.1	-20.9
CCN1CCN(C(=O)/C=C/c2ccc(OC)c(OC)c2)CC1	-1.3	-3.8	10.2	i	-23.5	-0.7	-1.1	-0.2
O=C(CCn1c(=O)oc2ccccc21)Nc1nccs1	-1.6	.	15.2	i	-26.8	-115.7	9.8	5.7
Cc1ccc(Nc2nnc(SCc3ccccc3)s2)cc1	-8.3	8.3	-5.7	i	-19.1	-31.4	-3.1	-0.9
O=C(COC(=O)c1ccc([N+](=O)[O-])cc1)Nc1ccc(Cl)cn1	.	3.4	.	i	-1.9	5.0	-2.9	3.7

Screens from PubChem.
